eIF4H FP inh: inhibitors of RNA binding by human eIF4H; Q15056; eIF4H fluorescence polarization binding assay; inhibition, % at 35 µM; actives 0.94% (n = 290,000); AID 2012;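 active means 50% or more with normal probe brightness, or confirmed in later tests; about a fifth of its hits are not listed in these tables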;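 further: calls also rest on retests at 20 µM and on dose response follow-up; 0% = protein and probe with vehicle and 100% = probe without protein; strong numbers were not always called active; many hits fall short of the cut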
CSC inhib: blocks cancer stem cells. cancer stem cell-like cells viability, luminescence. inhibition, % at 7.5 µM. actives 1.1% (n = 300,000);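 active means mean at 75% or more and at least half the replicates too; tested in HMLE shEcad cells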;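 further: 0% = median of negative and 100% = median of positive control wells; the first replicate is given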
PABP FP inh: blocks human PABP binding to poly(A) RNA | AID 2014 | fluorescence polarization | actives 1% (n = 290,000) | inhibition, % at 35 µM | P11940;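 active means 50% or more with normal probe brightness, or confirmed in later tests; about a fifth of its hits are not listed in these tables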;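 further: calls also rest on retests at 20 µM and on dose response follow-up; controls were probe without protein and protein plus probe with vehicle; some compounds called inactive have numbers as strong as hits; many hits fall short of the cut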
Target sequence (P11940 whole entry, looked up): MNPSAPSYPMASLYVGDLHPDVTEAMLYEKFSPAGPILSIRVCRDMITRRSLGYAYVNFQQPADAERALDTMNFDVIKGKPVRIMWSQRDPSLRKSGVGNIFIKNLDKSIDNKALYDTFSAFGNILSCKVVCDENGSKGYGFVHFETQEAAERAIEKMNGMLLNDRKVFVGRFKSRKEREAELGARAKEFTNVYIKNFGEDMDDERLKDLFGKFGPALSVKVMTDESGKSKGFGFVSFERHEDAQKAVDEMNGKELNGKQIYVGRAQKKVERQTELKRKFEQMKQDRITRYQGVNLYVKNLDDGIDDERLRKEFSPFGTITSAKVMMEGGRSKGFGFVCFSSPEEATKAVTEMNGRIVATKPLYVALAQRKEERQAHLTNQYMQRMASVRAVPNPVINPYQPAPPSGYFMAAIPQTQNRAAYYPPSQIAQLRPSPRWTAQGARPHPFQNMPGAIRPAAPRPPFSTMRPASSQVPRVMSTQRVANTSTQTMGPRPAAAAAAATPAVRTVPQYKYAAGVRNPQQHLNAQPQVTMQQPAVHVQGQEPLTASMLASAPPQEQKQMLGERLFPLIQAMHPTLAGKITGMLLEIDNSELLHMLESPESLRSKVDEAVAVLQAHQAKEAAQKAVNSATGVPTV
MT1-MMP act inh: MT1-MMP (human) activation inhibition. P50281. HT1080 RFP-PRO-GFP cells, GFP/RFP ratio fluorescence, overnight; percent of plate control window, DMSO zero. GFP/RFP ratio change, % at 20 µM. actives 0.061% (n = 360,000). AID 651647;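 active means GFP/RFP ratio change of at least 30% with cell ATP level not reduced by more than half and red fluorescence within 50% of control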; further: strong numbers were not always called active
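Assay system: HT1080 RFP-PRO-GFP cells | Dosing: 20 µM single dose, 1% DMSO | Incubation: Cells overnight before dosing, compound overnight, 37 °C, 5% CO2 | Evaluation: GFP/RFP fluorescence ratio | Control set: DMSO-only wells and HT1080 RFP-L50D-GFP cell wells as references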
Rce1 inhib: yeast Ras-converting enzyme inhibition | yeast membranes, quenched prenylated peptide cleavage fluorescence | actives 0.27% (n = 290,000) | AID 2563 | calls only | Q03530;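 active means fall in fluorescence gain of 50% or more versus controls, with final raw signal at or below 3038400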;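 further: plate controls were neutral control wells for no effect and wells lacking membranes for full effect; tested at 10 µM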
Target sequence (Q03530 whole entry, looked up): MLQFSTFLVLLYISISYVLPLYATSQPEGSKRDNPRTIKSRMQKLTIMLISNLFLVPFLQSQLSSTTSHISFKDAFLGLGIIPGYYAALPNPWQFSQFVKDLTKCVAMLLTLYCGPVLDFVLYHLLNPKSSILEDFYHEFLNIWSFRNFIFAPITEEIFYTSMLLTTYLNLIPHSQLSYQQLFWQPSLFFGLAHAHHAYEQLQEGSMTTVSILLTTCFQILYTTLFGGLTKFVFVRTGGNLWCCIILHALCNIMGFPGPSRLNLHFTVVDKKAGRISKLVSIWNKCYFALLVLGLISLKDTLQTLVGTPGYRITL
Yeast UUG start: alters start codon recognition fidelity in yeast. activity score, % at 18.7 µM. actives 0.13% (n = 350,000). S. cerevisiae UUG-firefly luciferase reporter, luminescence/redox ratio. AID 602363;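 active means replicate mean at a twofold rise or more, about +100% in these data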;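 further: firefly luciferase made from a UUG start codon reports start codon fidelity; reporter light over untreated wells divided by growth signal over untreated wells; some hits fall short of that in this replicate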
HIV Env fusion: inhibitors of HIV Env-mediated cell fusion; HeLa-JRFL Env/CEM21 cell fusion, luciferase; inhibition, % at 12.3 µM; actives 1.1% (n = 360,000); AID 651610;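 active means mean replicate inhibition score of at least 50 and every replicate individually at or above 50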;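 further: 0% = plate neutral controls and 100% = maraviroc near 300 nM; one replicate is shown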
MT1-MMP act inh RFP: second read-out of MT1-MMP act inh, no call of its own (marks repeat the call); RFP signal change, %; measured here: RFP expression control read;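 0 = vehicle wells; hits needed this value within 50% of zero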
* hit, by the source's call.

Results for CCOC(=O)C(C)N1C(=O)S/C(=C/c2ccc3c(c2)n(C)c(=O)n3C)C1=O (centres undefined) ?
eIF4H FP inh: -4; CSC inhib: 6; PABP FP inh: 4; MT1-MMP act inh: 8; Rce1 inhib: inactive; Yeast UUG start: 4; HIV Env fusion: 8; MT1-MMP act inh RFP: 4

How did O=C(OCCOCCOC(=O)Oc1ccccc1)Oc1ccccc1 do in these assays?
MT1-MMP act inh: 1; Yeast UUG start: 3; HIV Env fusion: -12; MT1-MMP act inh RFP: 1

How did COc1ccccc1C(=O)NCCC(=O)NC1=NCCS1 do in these assays?
CSC inhib: -2; MT1-MMP act inh: 3; Yeast UUG start: -15; MT1-MMP act inh RFP: 5

Results for COc1cc(NC(=O)c2ccc(F)cc2)ccc1NC(=O)c1cc2ccccc2o1 ?
eIF4H FP inh: -4; CSC inhib: -10; PABP FP inh: 2; MT1-MMP act inh: -2; Rce1 inhib: inactive; Yeast UUG start: -6; HIV Env fusion: -7; MT1-MMP act inh RFP: 0

How did Cc1ccc(CNc2ccc(N3C(=O)CCCC3=O)cc2[N+](=O)[O-])cc1 do in these assays?
eIF4H FP inh: 4; CSC inhib: 1; PABP FP inh: 1; MT1-MMP act inh: 8; Rce1 inhib: inactive; Yeast UUG start: -19; HIV Env fusion: 17; MT1-MMP act inh RFP: 1

What do the screens show for `CCOC(=O)C1=C(C)N(c2ccccc2)C(=O)C1`?
eIF4H FP inh: 0; CSC inhib: -3; PABP FP inh: -4; MT1-MMP act inh: -3; Rce1 inhib: inactive; Yeast UUG start: -7; HIV Env fusion: -41; MT1-MMP act inh RFP: 2

Results for COC(=O)c1c(NC(=O)CSc2nc3nc(C)cc(C)n3n2)sc(C)c1C ?
eIF4H FP inh: -8; CSC inhib: 3; PABP FP inh: 1; MT1-MMP act inh: 1; Rce1 inhib: inactive; Yeast UUG start: -9; HIV Env fusion: 7; MT1-MMP act inh RFP: 1

What do the screens show for `CN(C)S(=O)(=O)N1CCC(n2nccc2NC(=O)CCc2ccccc2)CC1`?
eIF4H FP inh: -14; CSC inhib: 0; PABP FP inh: 8; MT1-MMP act inh: -3; Rce1 inhib: inactive; Yeast UUG start: -7; HIV Env fusion: -6; MT1-MMP act inh RFP: 0

What do the screens show for `CCOC(=O)c1cc(-c2ccc(C)cc2)n(CCC(=O)NCCCOC)c1C`?
eIF4H FP inh: 0; CSC inhib: -5; PABP FP inh: 3; MT1-MMP act inh: -3; Rce1 inhib: inactive; HIV Env fusion: -99; MT1-MMP act inh RFP: -1

Results for c1cncc(-c2nc(-c3ccc4c(c3)OCO4)cs2)c1 ?
eIF4H FP inh: -5; CSC inhib: -3; PABP FP inh: -2; MT1-MMP act inh: -5; Rce1 inhib: inactive; Yeast UUG start: -17; MT1-MMP act inh RFP: -1

Results for O=C(COC(=O)C1CC2C=CC1C2)NCCc1ccccc1 (centres undefined) ?
eIF4H FP inh: 2; CSC inhib: -8; PABP FP inh: 5; MT1-MMP act inh: -2; Rce1 inhib: inactive; Yeast UUG start: -5; HIV Env fusion: 7; MT1-MMP act inh RFP: 0

How did CCOC(=O)C1=C(C)N(C)C(=S)NC1c1ccccc1 (centres undefined) do in these assays?
eIF4H FP inh: 2; PABP FP inh: 9; MT1-MMP act inh: 1; Rce1 inhib: inactive; Yeast UUG start: -19; HIV Env fusion: 5; MT1-MMP act inh RFP: 4

Results for COCCN1C[C@@H](CO)O[C@@H](n2cnc3c(NCc4cc(OC)c(OC)c(OC)c4)ncnc32)C1 ?
MT1-MMP act inh: -4; Yeast UUG start: 29; HIV Env fusion: 11; MT1-MMP act inh RFP: -1

How did CCOc1ccc(/C(O)=C2/C(=O)C(=O)N(c3nc(C)c(C)s3)C2c2ccco2)cc1 (centres undefined) do in these assays?
eIF4H FP inh: 7; CSC inhib: -3; PABP FP inh: 19; MT1-MMP act inh: 0; Rce1 inhib: inactive; Yeast UUG start: -20; MT1-MMP act inh RFP: 5

Results for CCOC(=O)C1(Cc2ccc(Cl)cc2)CCN(C2CCC2)CC1 ?
eIF4H FP inh: -15; CSC inhib: 6; PABP FP inh: 16; MT1-MMP act inh: 4; Rce1 inhib: inactive; Yeast UUG start: -11; HIV Env fusion: 7; MT1-MMP act inh RFP: 3

How did O=C(CN1CCc2ccccc21)NN1CC(=O)N(c2ccc(Cl)cc2)CC1=O do in these assays?
eIF4H FP inh: 9; CSC inhib: -10; PABP FP inh: -12; MT1-MMP act inh: -3; Rce1 inhib: inactive; HIV Env fusion: -18; MT1-MMP act inh RFP: 1

What do the screens show for `CCCCCc1cc(=O)oc2c(C(CCN3CCCC3)c3cc(OC)c(OC)c(OC)c3)c(OC)cc(OC)c12` (centres undefined)?
eIF4H FP inh: -2; CSC inhib: 52; PABP FP inh: 6; MT1-MMP act inh: 2; Rce1 inhib: inactive; Yeast UUG start: 23; HIV Env fusion: 15; MT1-MMP act inh RFP: -1

Results for COc1ccccc1C(=O)C1CCCN(C(=O)c2ccco2)C1 (centres undefined) ?
eIF4H FP inh: -4; CSC inhib: 4; PABP FP inh: 4; MT1-MMP act inh: 2; Rce1 inhib: inactive; Yeast UUG start: -23; HIV Env fusion: 1; MT1-MMP act inh RFP: 2

What do the screens show for `COP(=O)(CC(=O)c1ccccc1)CC(=O)c1ccccc1`?
eIF4H FP inh: -2; CSC inhib: -10; PABP FP inh: -6; MT1-MMP act inh: -2; Rce1 inhib: inactive; Yeast UUG start: -2; HIV Env fusion: 45; MT1-MMP act inh RFP: 0

What do the screens show for `COc1ccccc1CNC(=O)C1=CCN(S(=O)(=O)c2ccc(C)cc2)CC1`?
eIF4H FP inh: 1; CSC inhib: -17; PABP FP inh: -4; MT1-MMP act inh: 2; Rce1 inhib: inactive; HIV Env fusion: -2; MT1-MMP act inh RFP: 1

Results for CCCn1c(N)c(NCCN2CCOCC2)c(=O)[nH]c1=O ?
eIF4H FP inh: 37; CSC inhib: -16; PABP FP inh: 1; MT1-MMP act inh: -1; Rce1 inhib: inactive; HIV Env fusion: 9; MT1-MMP act inh RFP: 4

What do the screens show for `CCOC(=O)c1sc(=NC(=O)c2ccc(Br)cc2)n(C)c1C`?
CSC inhib: -2; MT1-MMP act inh: -2; Rce1 inhib: inactive; Yeast UUG start: -14; HIV Env fusion: -14; MT1-MMP act inh RFP: 1

How did O=C(NCC1(N2CCOCC2)CCCCC1)c1ccc(Cl)c(S(=O)(=O)NCc2ccco2)c1 do in these assays?
eIF4H FP inh: -3; CSC inhib: 4; PABP FP inh: 12; MT1-MMP act inh: -3; Rce1 inhib: inactive; Yeast UUG start: -11; HIV Env fusion: -23; MT1-MMP act inh RFP: 4

What do the screens show for `Cc1cc(=O)[nH]c(N/N=C/c2ccc(OC(=O)c3ccco3)cc2)n1`?
eIF4H FP inh: -4; CSC inhib: 8; PABP FP inh: 3; MT1-MMP act inh: 0; Rce1 inhib: inactive; HIV Env fusion: -5; MT1-MMP act inh RFP: 6

How did COc1ccc(-c2cc(C(=O)Nc3ccccc3F)on2)cc1 do in these assays?
eIF4H FP inh: -11; CSC inhib: 1; PABP FP inh: 10; MT1-MMP act inh: 2; Rce1 inhib: inactive; HIV Env fusion: 1; MT1-MMP act inh RFP: 5

How did Cc1ccc(C)c(-n2c(CNC(=O)c3ccco3)nnc2SCC(=O)Nc2nccs2)c1 do in these assays?
eIF4H FP inh: 11; CSC inhib: 7; PABP FP inh: 2; MT1-MMP act inh: -5; Yeast UUG start: -18; HIV Env fusion: -58; MT1-MMP act inh RFP: -1

Results for COc1ccc(S(=O)(=O)N2CCOCC2)cc1NC(=O)CN1C(=O)NC2(CCC(C)CC2)C1=O (centres undefined) ?
MT1-MMP act inh: 3; Yeast UUG start: -16; HIV Env fusion: 0; MT1-MMP act inh RFP: 6

How did CN(C)/C=C(\C#N)C(=O)c1cccnc1Oc1ccc(F)cc1F do in these assays?
eIF4H FP inh: -4; CSC inhib: -7; PABP FP inh: -6; MT1-MMP act inh: -5; Rce1 inhib: inactive; Yeast UUG start: -14; HIV Env fusion: 14; MT1-MMP act inh RFP: 1

Results for CCN(CC(=O)Nc1ccc(NC(C)=O)cc1)C(=O)/C=C/c1ccc2c(c1)OCO2 ?
CSC inhib: 66; MT1-MMP act inh: 8; Rce1 inhib: inactive; HIV Env fusion: -7; MT1-MMP act inh RFP: 3

Results for Cc1ccc(C)c(NC(=S)NNC(=O)c2cc3c(s2)CCC(C)C3)c1 (centres undefined) ?
eIF4H FP inh: 9; CSC inhib: 2; PABP FP inh: 12; MT1-MMP act inh: 4; Rce1 inhib: inactive; HIV Env fusion: -11; MT1-MMP act inh RFP: 2

Pulled by compound from the list above:
How did COc1ccc(-c2cc(C(=O)Nc3ccccc3F)on2)cc1 do in these assays?
eIF4H FP inh: -11; CSC inhib: 1; PABP FP inh: 10; MT1-MMP act inh: 2; Rce1 inhib: inactive; HIV Env fusion: 1; MT1-MMP act inh RFP: 5

How did Cc1ccc(CNc2ccc(N3C(=O)CCCC3=O)cc2[N+](=O)[O-])cc1 do in these assays?
eIF4H FP inh: 4; CSC inhib: 1; PABP FP inh: 1; MT1-MMP act inh: 8; Rce1 inhib: inactive; Yeast UUG start: -19; HIV Env fusion: 17; MT1-MMP act inh RFP: 1

(listing goes on)
How did CCCN(CC(=O)Nc1ccccc1OC)C(=O)c1ccc(S(=O)(=O)Nc2ccccc2)cc1 do in these assays?
CSC inhib: -9; MT1-MMP act inh: -1; Rce1 inhib: inactive; Yeast UUG start: -7; HIV Env fusion: 10; MT1-MMP act inh RFP: 1

What do the screens show for `CC1(C)C(=O)Nc2ccccc2N1C(=O)COC(=O)c1ccc([N+](=O)[O-])o1`?
MT1-MMP act inh: -4; Yeast UUG start: -8; HIV Env fusion: 6; MT1-MMP act inh RFP: 2

How did O=C(N/N=C/c1cc(Cl)ccc1O)C(=O)Nc1ccccc1OC(F)(F)C(F)F do in these assays?
eIF4H FP inh: -7; CSC inhib: 96*; PABP FP inh: -7; MT1-MMP act inh: -28; HIV Env fusion: -11; MT1-MMP act inh RFP: -9

How did COCCN1C(=O)N(c2cccc(C)c2)C(=O)C1CC(=O)Nc1ccc(OC)cc1 (centres undefined) do in these assays?
eIF4H FP inh: 0; CSC inhib: -2; PABP FP inh: -11; MT1-MMP act inh: 0; Rce1 inhib: inactive; Yeast UUG start: 0; HIV Env fusion: -9; MT1-MMP act inh RFP: -3

What do the screens show for `O=C(O)CNC(=O)CC1S/C(=N/N=C2/NC(=O)CS2)NC1=O` (centres undefined)?
eIF4H FP inh: 29; CSC inhib: -5; PABP FP inh: 8; MT1-MMP act inh: -57; Rce1 inhib: inactive; HIV Env fusion: 2; MT1-MMP act inh RFP: 9

Results for O=S(=O)(c1ccc(Cl)nc1)N1CCOCC1 ?
CSC inhib: -14; MT1-MMP act inh: 1; Yeast UUG start: -4; MT1-MMP act inh RFP: 3

What do the screens show for `CC(NC(=O)c1ccc2c(c1)OCO2)C(c1cccs1)N1CCN(c2ccccc2)CC1` (centres undefined)?
eIF4H FP inh: -10; CSC inhib: -14; PABP FP inh: -1; MT1-MMP act inh: 2; Rce1 inhib: inactive; Yeast UUG start: -2; HIV Env fusion: 7; MT1-MMP act inh RFP: -8

What do the screens show for `COc1cccc(OCCOc2c(OC)cccc2OC)c1`?
eIF4H FP inh: 0; CSC inhib: -7; PABP FP inh: 1; MT1-MMP act inh: -4; Rce1 inhib: inactive; Yeast UUG start: 2; MT1-MMP act inh RFP: -4

How did CC(C)(C)c1ccc(C(=O)Nc2sc3c(c2C(=O)O)CCC3)cc1 do in these assays?
eIF4H FP inh: 10; CSC inhib: 15; PABP FP inh: 0; MT1-MMP act inh: -6; Rce1 inhib: inactive; HIV Env fusion: 81*; MT1-MMP act inh RFP: -8

What do the screens show for `CNS(=O)(=O)c1ccc(NC(=O)c2ccoc2C)cc1`?
eIF4H FP inh: -4; CSC inhib: -5; PABP FP inh: -7; MT1-MMP act inh: 1; Rce1 inhib: inactive; HIV Env fusion: 9; MT1-MMP act inh RFP: 5
